# Compound activity (PubChem BioAssay)
# GIRK2 act = GIRK2 channel activation | P48051 | HEK293-GIRK2 thallium flux, Thallos fluorescence | calls only for hits at 25 µM | actives 0.05% (n = 63,000);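 active means among the strongest 0.2% of first-round signals and kept after retests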;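 further: first round at about 10 µM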
# Target sequence (P48051 whole entry, looked up): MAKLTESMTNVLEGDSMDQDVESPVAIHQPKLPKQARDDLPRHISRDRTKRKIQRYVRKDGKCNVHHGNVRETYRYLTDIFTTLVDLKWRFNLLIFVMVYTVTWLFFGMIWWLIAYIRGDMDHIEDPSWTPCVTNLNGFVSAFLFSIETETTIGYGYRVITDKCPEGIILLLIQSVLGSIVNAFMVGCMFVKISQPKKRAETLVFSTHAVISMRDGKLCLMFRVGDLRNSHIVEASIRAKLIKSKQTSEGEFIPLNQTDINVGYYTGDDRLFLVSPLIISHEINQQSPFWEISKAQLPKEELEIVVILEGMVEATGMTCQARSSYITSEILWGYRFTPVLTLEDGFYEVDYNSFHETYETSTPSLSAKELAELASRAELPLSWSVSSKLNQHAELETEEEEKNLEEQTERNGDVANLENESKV
# Calls only; i = inactive. Not all compounds are listed, so the mix of outcomes need not match the whole.
Cn1cc(C(=O)Nc2nc(-c3ccco3)cs2)nn1
  GIRK2 act: i
CCCCC/C=C\C/C=C\CCCCCCCC(=O)OCC
  GIRK2 act: i
Cc1cc(C)n(-c2ccnc(NCc3cccc(Br)c3)n2)n1
  GIRK2 act: i
CCCn1c(=O)[nH]c2c(C(=O)N3CCN(c4ccccc4F)CC3)snc2c1=O
  GIRK2 act: i
COC(=O)c1ccccc1NC(=O)Cn1nc2c3cccc(C)c3ncn2c1=O
  GIRK2 act: i
O=C(NCc1ccc2c(c1)OCO2)c1c(O)c2cccnc2n(-c2ccccc2)c1=O
  GIRK2 act: i
O=C1CC[C@@H](O)c2cccc(O)c21
  GIRK2 act: i
CN(CC(=O)NCCc1ccc(F)cc1)c1nc2c(C(F)(F)F)cccc2s1
  GIRK2 act: i
NC(=O)CN1CCC(Cn2c(C(F)(F)F)nc3ccccc32)CC1
  GIRK2 act: i
COC(=O)C1CCN(C(=O)Cn2nc(C(=O)N3CCOCC3)cc2-c2cccs2)CC1
  GIRK2 act: i
COc1ccc2sc(N(CCN3CCOCC3)C(=O)c3ccco3)nc2c1
  GIRK2 act: i
CCOc1cc(S(=O)(=O)N2CCOCC2)c(C)cc1C
  GIRK2 act: i
Cc1cc(C)n(-c2cc(N3CCCC(C(=O)NN4CCN(C)CC4)C3)ncn2)n1 (centres undefined)
  GIRK2 act: i
COCCn1c(=S)[nH]c2cc(C(=O)Nc3ccc(F)cc3)ccc2c1=O
  GIRK2 act: i
COc1ccccc1C(=O)NCC1(c2ccccc2)CCOCC1
  GIRK2 act: i
CN(C)c1nn(CC(=O)NCc2cccc(C(F)(F)F)c2)cc1-c1ccccc1
  GIRK2 act: i
O=C(O)c1cn(CCc2ccccc2)nc1S(=O)(=O)N1CCSCC1
  GIRK2 act: i
Cc1nc(-n2cccc2)sc1C(=O)NCCn1nc(-c2ccccn2)n(C)c1=O
  GIRK2 act: i
Cc1cc(NC(=O)CN2CC(c3nc(Cc4ccccc4)no3)C2)no1
  GIRK2 act: i
C[C@H](O)C(O)(C(=O)OCc1ccccc1NC(=O)CCC(N)C(=O)O)[C@H](C)O (some centres undefined)
  GIRK2 act: i
O=C(Cn1c(CN2CCCCC2)nc2ccccc21)N1CCOCC1
  GIRK2 act: i
COC(=O)Nc1ccc(S(=O)(=O)N2CCN(C)CC2)cc1
  GIRK2 act: i
COc1ccc(-c2noc(-c3ccc(=O)n(Cc4ccccc4)c3)n2)cc1OC
  GIRK2 act: i
COc1ccc(-c2ccc(N3CCCC(C(=O)NCC4CCCO4)C3)nn2)cc1 (centres undefined)
  GIRK2 act: i
Cc1cccn2c(=O)c3cc(C(=O)NCC(C)C)n(Cc4ccccc4)c3nc12
  GIRK2 act: i

COc1ccc(-c2csc3c(=O)n(CC(=O)N4CCN(c5ccccc5)CC4)cnc23)cc1
  GIRK2 act: i
O=P(O)(O)OC1C(OP(=O)(O)O)[C@H](O)[C@@H](O)C(OP(=O)(O)O)[C@@H]1O (some centres undefined)
  GIRK2 act: i
COc1ccc(Cn2c(-c3ccc(C)cc3)nc3oc4ccccc4c(=O)c3c2=O)cc1
  GIRK2 act: i
O=C(Nc1ccc(N2CCCS2(=O)=O)cc1)c1cccs1
  GIRK2 act: i
O=C(NCCC(O)c1ccccc1)c1cccc(C(F)(F)F)c1 (centres undefined)
  GIRK2 act: i
COC(=O)NCCC1CCCCN1S(=O)(=O)c1ccc(C)cc1 (centres undefined)
  GIRK2 act: i
COc1ccccc1NC(=O)N1CCN(Cc2nnnn2-c2ccc(Cl)cc2)CC1
  GIRK2 act: i
CN(C)C(=O)c1nnn(-c2ccc(NC(=O)c3cnc4ccccc4n3)cc2)n1
  GIRK2 act: i
O=C(O[C@H]1[C@H](Oc2ccccc2COC(=O)C2(O)C=CCCC2=O)O[C@H](CO)[C@@H](O)[C@@H]1O)c1ccccc1 (some centres undefined)
  GIRK2 act: i
COc1ccc(CCNC(=O)c2nnn(-c3ccccc3Cl)c2-c2ccncc2)cc1OC
  GIRK2 act: i
OC(COc1c(F)cc(Br)cc1F)CSc1ccccn1 (centres undefined)
  GIRK2 act: i
O=S(=O)(NCC1(c2ccccc2)CCOCC1)c1cc(Cl)ccc1Cl
  GIRK2 act: i
Cc1noc(CNC(=O)C2CCN(C(=O)CSCc3ccccc3)CC2)n1
  GIRK2 act: i
COc1ccc(C)c2sc(N(CCCN(C)C)C(=O)c3ccnn3C)nc12
  GIRK2 act: i
CN1CCc2c(sc(NC(=O)CCSc3ccccc3)c2-c2nc3ccccc3s2)C1
  GIRK2 act: i
CCOc1ccc(-c2ccc(OCCNC(=O)c3c(F)cccc3F)nn2)cc1
  GIRK2 act: i
COc1ccc(C2CCN(C(=O)c3cc(OC)ccc3Br)C2)cc1 (centres undefined)
  GIRK2 act: i
COc1ccc(NC(=O)Cn2nc(-c3ccco3)c3sc(N4CCCC4)nc3c2=O)cc1OC
  GIRK2 act: i
COc1ccc(NC(=O)C(=O)NCC(C)(O)CSC)cc1OC (centres undefined)
  GIRK2 act: i
CCS(=O)(=O)N1CCN(CC(F)(F)F)CC1
  GIRK2 act: i
O=C(CSC1CCCC1)N1CCN(C(=O)C2CC2c2cccs2)CC1 (centres undefined)
  GIRK2 act: i
O=C(NC1(c2nc(C3CC3)no2)CCCCC1)C1CC(=O)N(c2ccccc2)C1 (centres undefined)
  GIRK2 act: i
O=C(c1c(F)cccc1Cl)N1CCN(c2ccc(-c3noc(C4CC4)n3)cn2)CC1
  GIRK2 act: i
Cc1ccccc1CN1CC(c2noc(-c3ccc(C#N)cc3)n2)CC1=O (centres undefined)
  GIRK2 act: i
O=C(c1cccc(F)c1)N1CCN(Cc2nc3ccccc3[nH]2)CC1
  GIRK2 act: i

# The list goes on (seven carried over from the part before).
mol	GIRK2 act
COc1ccc(NC(=O)C(=O)NCC(C)(O)CSC)cc1OC (centres undefined)	i
CCS(=O)(=O)N1CCN(CC(F)(F)F)CC1	i
O=C(CSC1CCCC1)N1CCN(C(=O)C2CC2c2cccs2)CC1 (centres undefined)	i
O=C(NC1(c2nc(C3CC3)no2)CCCCC1)C1CC(=O)N(c2ccccc2)C1 (centres undefined)	i
O=C(c1c(F)cccc1Cl)N1CCN(c2ccc(-c3noc(C4CC4)n3)cn2)CC1	i
Cc1ccccc1CN1CC(c2noc(-c3ccc(C#N)cc3)n2)CC1=O (centres undefined)	i
O=C(c1cccc(F)c1)N1CCN(Cc2nc3ccccc3[nH]2)CC1	i
CCc1nc(N)n(CC(=O)NCc2ccc(Cl)cc2)c(=O)c1C	i
CC1CCN(S(=O)(=O)c2ccc(-c3ccc(S(=O)(=O)N4CCC(C)CC4)cc3)cc2)CC1	i
Cc1c(Cl)cccc1NC(=O)c1csc(-n2cccc2)n1	i
Nc1ccc(-c2coc3cc(Br)ccc3c2=O)cc1	i
Cc1cc(C)n(CCNC(=O)c2cc(=O)c3ccccc3o2)n1	i
COc1ccc(NC(=O)c2ccc(S(=O)(=O)N3CCCC3)cc2)cc1OC	i
COc1ccc(-c2noc(Cn3ccn(-c4ccccc4C)c(=O)c3=O)n2)cc1OC	i
Cc1nc(C)c(-c2nnc(NC(=O)CCc3c(C)noc3C)o2)s1	i
Cn1cccc1CN(Cc1cccs1)C(=O)c1c(F)cccc1Cl	i
C[C@@H]1O[C@@H](O[C@H]2[C@@H]3C=CO[C@@H](O[C@@H]4O[C@H](CO)[C@@H](O)[C@H](O)[C@H]4O)[C@@H]3[C@@]3(CO)O[C@@H]23)[C@H](O)[C@H](O)[C@H]1OC(=O)/C=C/c1ccccc1	i
Cn1c(=O)c2cc(C(=O)Nc3cccnc3)n(Cc3ccccc3)c2n(C)c1=O	i
COCCCNC(=O)c1c(N)n(/N=C\c2cccc([N+](=O)[O-])c2)c2nc3ccccc3nc12	i
COCCN1CCC(NC(=O)Cc2ccc(OC)cc2)CC1	i
COc1cc2[nH]c3c(=O)n(CCC(=O)NCc4ccc5c(c4)OCO5)cnc3c2cc1OC	i
Cn1c(=O)[nH]c(=O)c2c1nc(SCC(=O)O)n2CCOc1ccccc1	i
CS(=O)(=O)c1ncc(Cl)c(C(=O)Nc2ccc(Oc3ccccc3)cc2)n1	i
COc1ccc(C)cc1NC(=O)Cn1c(-c2ccc(F)cc2)ncc(C#N)c1=O	i
O=C(COc1ccccc1F)N1CCN(C(=O)C2CC2c2ccccc2)CC1 (centres undefined)	i
CS(=O)(=O)NCC1CCC(C(=O)NC2=NCCS2)CC1 (centres undefined)	i
Cc1ccc(-n2ncc3c(=O)n(Cc4nc(-c5ccc(Br)cc5)no4)cnc32)cc1	i

# The listing continues:
mol	GIRK2 act
CC(O)(CNC(=O)C(=O)Nc1ccc2c(c1)CCCN2C(=O)c1cccs1)c1ccco1 (centres undefined)	i
O=C(Cn1c(=O)oc2ccccc21)N1CCN(CCn2cccn2)CC1	i
CSc1cccc(NC(=O)c2cc(=O)c(OCc3ccc(F)cc3)co2)c1	i
CC(C)(C)C(O)CCNC(=O)CC1CCCC1 (centres undefined)	i
Cc1cccc(NC(=O)N2CC(c3nc(C4CC4)no3)C2)c1	i
COc1ccc(S(=O)(=O)NCC(c2cccnc2)N2CCN(c3ccccc3)CC2)cc1C (centres undefined)	i
O=S(=O)(c1ccc(F)c(Cl)c1)N1CCCSCC1CN1CCCC1 (centres undefined)	i
COc1ccc(-c2noc(CSc3nc(-c4ccncc4)cc(=O)[nH]3)n2)cc1OC	i
CCc1nc2sc(C(c3cccc(Cl)c3)N3CCCC3)c(O)n2n1 (centres undefined)	i
CCn1c(SCC(=O)Nc2ccc(F)cc2F)nc2cc(-c3ccccc3)sc2c1=O	i
CC(CNC(=O)c1ccc(Oc2nccnc2N2CCOCC2)cc1)c1ccccc1 (centres undefined)	i
COc1ccc(C(=O)NCCS(=O)(=O)N2CCOCC2)cc1	i
CN(C)C(CNC(=O)Nc1ccccc1C(F)(F)F)c1ccsc1 (centres undefined)	i
O=C(NCc1ccccc1)NCC1COC2(CCCC2)O1 (centres undefined)	i
Cc1noc(-c2ccc(N3CCCC(C(=O)NCCc4cccs4)C3)nc2)n1 (centres undefined)	i
Cc1cc(CNS(=O)(=O)c2ccc(F)c(Cl)c2)c(C)o1	i
COc1ccc(-c2cn[nH]c2-c2ccc(OCCN3CCCCC3)cc2O)cc1OC	i
Cc1ccc(-c2noc(-c3ccc(=O)n(Cc4ccccc4F)c3)n2)cc1	i
COc1ncc(NS(=O)(=O)c2cc(C)ccc2OC)cn1	i
COc1cc(OC)cc(C(=O)Nc2ccc(-n3c(C)nc4ccccc4c3=O)cc2)c1	i

# Additional structures.
mol	GIRK2 act
COc1ccc(NC(=O)C23CC4CC(C2)CC(c2ccccc2)(C4)C3)c(OC)c1	i
COc1cc(OC)cc(-c2noc(CSc3nc4cc5c(cc4c(=O)n3C)OCO5)n2)c1	i
COc1cc(OC)cc(-c2noc(-c3sccc3S(=O)(=O)N(C)c3cccc(OC)c3)n2)c1	i
COc1ccc(-c2noc(C3CC(=O)N(c4ccc(OC)c(OC)c4)C3)n2)cc1 (centres undefined)	i
COc1cc(NC(=O)c2cc(C3CC3)on2)ncn1	i
COc1ccccc1C(=O)N1CCN(c2ncnc3c2nnn3-c2ccccc2)CC1	i
O=S(=O)(Cc1ccc(C(F)(F)F)cc1)NCC1(c2ccccc2)CCOCC1	i
CC(=O)N[C@@H](Cc1ccc(OP(=O)(O)O)cc1)C(=O)N[C@H]1CCC(=O)N2CCC[C@@H](C(=O)NCc3ccccc3)N2C1=O	i
Cc1cc(C)c2c(=O)c(-c3nc4ccccc4s3)coc2c1	i
COCCN(Cc1ccsc1)S(=O)(=O)CCc1ccc(OC)cc1	i
COc1cccc2sc(OC3CN(C(=O)c4cccc(S(C)(=O)=O)c4)C3)nc12	i
O=C(Nc1ccc(C(F)(F)F)cc1)C(=O)N1CCN(c2ccccc2)CC1	i
O=C(C1CC1)N1CCC(Oc2ncccc2Br)CC1	i
O=C(CCS(=O)(=O)c1ccccc1)N1CCC(Oc2cnccn2)CC1	i
Cc1noc(CNC(=O)c2nnn(-c3nc4c(s3)CCCC4)c2C)n1	i
Cc1nnc(C2CCCN(C(=O)c3cc(-c4ccccc4)nn3C)C2)s1 (centres undefined)	i
O=S(=O)(Cc1cc(F)ccc1F)NCC1(O)CCOc2ccccc21 (centres undefined)	i
COc1ccc(F)cc1C(=O)CN1C(=O)c2ccccc2OC(C(C)C)C1=O (centres undefined)	i
CCOC(=O)/C(C#N)=C/c1c[nH]c2ccccc12	i
Cc1cc(CCNC(=O)C2CC(=O)N(c3ccc(Cl)cc3)C2)on1 (centres undefined)	i

# 4 neighbouring entries already listed:
mol	GIRK2 act
O=S(=O)(Cc1cc(F)ccc1F)NCC1(O)CCOc2ccccc21 (centres undefined)	i
COc1ccc(F)cc1C(=O)CN1C(=O)c2ccccc2OC(C(C)C)C1=O (centres undefined)	i
CCOC(=O)/C(C#N)=C/c1c[nH]c2ccccc12	i
Cc1cc(CCNC(=O)C2CC(=O)N(c3ccc(Cl)cc3)C2)on1 (centres undefined)	i

# More results follow.
mol	GIRK2 act
Cc1nnc(C2CCN(C(=O)Cc3cccs3)CC2)s1	i
COCCCn1c(C2CCCCC2)nc2oc3cc(OC)ccc3c(=O)c2c1=O	i
O=C(Cn1c(=O)[nH]c2c(-c3ccccc3F)c[nH]c2c1=O)NCCc1ccccc1	i
O=C(Cc1csc(Nc2ccc(Cl)cn2)n1)Nc1cccc2nsnc12	i
COc1cccc(NC(=O)Cn2cnc3c(sc4nc(C)cc(-c5ccccc5)c43)c2=O)c1	i
COCCNC(=O)Nc1nc2c(s1)Cc1ccccc1-2	i
CCN(CC)CCN1C(=O)C(O)=C(C(=O)c2cc3cccc(OC)c3o2)C1c1ccncc1 (centres undefined)	i
Cc1ccc(Nc2nc(N3CCN(C)CC3)nc3n[nH]nc23)cc1	i
CCOc1ccc(-c2ccc(=O)n(CCN3CCCCC3)n2)cc1	i
O=C(CN1C(=O)CCC1=O)NCCc1nc(C2CC2)cc(C(F)(F)F)n1	i
CCOC(=O)N1CCN(C(=O)c2csc(Nc3ccc(OC(F)F)cc3)n2)CC1	i
CCOc1ccc(S(=O)(=O)c2cnc(SCC(=O)Nc3cccc(Cl)c3)[nH]c2=O)cc1	i
COc1cccc(-c2nc(C#N)c(N3CCN(C(=O)c4ccco4)CC3)o2)c1	i
O=c1c2ccccc2nc(SCc2nc(-c3ccccc3)no2)n1Cc1cccs1	i
COCC(C)NC(=O)C1CN(c2nc3c(OC)cccc3s2)C1 (centres undefined)	i
O=C1CCCC(=O)N1CCS(=O)(=O)NC1CC(=O)N(C2CC2)C1 (centres undefined)	i
